Compound activity from PubChem BioAssay.
PGK inhibitor: T. brucei PGK inhibition. P07378. PGK/GAPDH coupled, Kinase-Glo luminescence, 60 min. Potency, µM (top dose mostly 57.5 µM), for the others: at the highest dose activity change, negative = inhibition, usual class: inhibitors. 0.043% of 380,000 active; further: potency means the concentration at half of the fitted maximal effect; on the % scale 0 is the no-effect control and ±100 the full control effect; nearly all actives have a fitted effect of over 60% in size
Target sequence (P07378 whole entry, looked up): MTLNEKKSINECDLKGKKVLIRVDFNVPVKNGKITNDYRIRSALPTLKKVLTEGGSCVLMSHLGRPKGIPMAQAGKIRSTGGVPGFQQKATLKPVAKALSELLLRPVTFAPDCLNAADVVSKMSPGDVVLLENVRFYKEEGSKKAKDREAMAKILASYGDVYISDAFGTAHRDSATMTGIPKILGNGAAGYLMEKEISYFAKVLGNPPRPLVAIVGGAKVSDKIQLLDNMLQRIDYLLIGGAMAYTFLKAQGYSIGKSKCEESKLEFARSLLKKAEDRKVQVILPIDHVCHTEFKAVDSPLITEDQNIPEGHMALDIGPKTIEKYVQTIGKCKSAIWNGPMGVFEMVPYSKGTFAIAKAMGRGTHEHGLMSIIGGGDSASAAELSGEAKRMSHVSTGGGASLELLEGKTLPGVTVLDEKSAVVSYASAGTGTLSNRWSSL
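Luminescent ATP detection (Kinase-Glo Plus) follows a 60-minute room-temperature incubation, with wells lacking PGK as controls. Buffer: 100 mM TEA (pH 7.6), 5 mM MgCl2, 0.01% Tween-20. Coupling enzyme GAPDH (100 nM final) supplies unstable 1,3-BPG in-well.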
GLS inh: blocks human kidney-isoform glutaminase activity | O94925 | 0.21% of 410,000 active | GLS enzymatic activity, qHTS titration | Potency, µM (series often up to 45.5 µM), for the others: at the top dose activity change, negative = inhibition, usual class: inhibitors; further: potency means the concentration at half of the fitted maximal effect; on the % scale 0 is the no-effect control and ±100 the full control effect
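Compounds were pin-transferred onto hKGA, after which L-glutamine (1 mM solution) and a detection mix of glutamate oxidase, HRP and Amplex Red were added. Initial and 30 min RT fluorescence reads were collected.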
ERG-DNA inh: blocks human ERG Ets domain binding to DNA | 0.028% of 370,000 active | fluorescence polarization, His-ERG Ets domain / labelled DNA | Potency, µM (titrated, usually from 76.9 µM), inactives show top-dose FP activity, negative = inhibition, most hits filed as inhibitors; active means well fitted inhibition curve with a large enough effect in the polarisation, with a control signal flat; inconclusive means small, poorly fitted or top-dose-only effect, or effect the other way, or a change in a side signal; inactive means no such curve, though single readings can be large or run the other way; the % refers to the polarisation;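 further: polarization taken with two DNA probes labelled with fluorescein and Texas red; potency means the concentration at half of the fitted maximal effect; % of control where 0% means no effect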
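His-tagged ERG Ets domain (1 uM in the protein solution; 300mM KCl, 50mM Tris-HCl, 1mM EDTA, 1mM DTT, pH 7.5) received compound, then a probe mix of 5 nM fluorescein-DNA and 100nM Texas-615-DNA. Fluorescence polarization was read for both dyes.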
Pin1 inh: human Pin1 inhibition; Q13526; Pin1 FP peptide displacement, HiFluor488, 10 min; Potency, µM (doses to about 115 µM), for inactives: at the top dose activity, negative = inhibition, usual class: inhibitors; 0.009% of 390,000 active; AID 504891; active means well fitted inhibition curve with a large enough effect in the polarisation, with a control signal flat, not every such curve was filed as active; inconclusive means small, poorly fitted or top-dose-only effect, or effect the other way, or a change in a side signal; inactive means no such curve, though single readings can be large or run the other way; the % refers to the polarisation; further: potency means the concentration at half of the fitted maximal effect; on the % scale 0 is the no-effect control and ±100 the full control effect
Target sequence (Q13526 whole entry, looked up): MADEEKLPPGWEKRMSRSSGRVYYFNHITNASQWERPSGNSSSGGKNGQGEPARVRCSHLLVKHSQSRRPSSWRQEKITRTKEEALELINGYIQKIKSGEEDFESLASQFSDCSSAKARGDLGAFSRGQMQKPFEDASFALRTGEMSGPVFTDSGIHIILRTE
HP1b chromo inh: inhibitors of HP1-beta chromodomain binding to methylated histone tails | AlphaScreen HP1-beta / biotin-H3K9me3 peptide binding | AID 540317 | 0.56% of 390,000 active | Potency, µM (series often up to 114 µM), without a hit: at the top dose activity change, negative = inhibition, actives largely listed as inhibitors | P83916; further: potency means the concentration at half of the fitted maximal effect; nearly all actives have a fitted effect of over 70% in size; inactives centre near 23
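Compound inhibition of the preformed complex between 50 nM HP1-beta and 50 nM biotinylated H3K9me3 peptide was read by AlphaScreen. Buffer was PBS pH 7.4 with 0.01% Tween-20. Incubations ran 30 min at room temperature, with 10 ug/mL donor/acceptor beads.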
JMJD2A Tudor: JMJD2A Tudor domain (human) inhibition | O75164 | AlphaScreen JMJD2A-Tudor / H3K4me3 peptide binding | Potency, µM (doses to about 114 µM), without a hit: at the highest dose activity change, negative = inhibition, most hits filed as inhibitors | 4.4% of 390,000 active | AID 504339; further: potency means the concentration at half of the fitted maximal effect; on the % scale 0 is the no-effect control and ±100 the full control effect; nearly all actives have a fitted effect of over 50% in size
G9a inh: G9a (human) methyltransferase inhibition; Potency, µM (titrated, usually from 102 µM), for inactives: at the highest dose activity, negative = inhibition, actives largely listed as inhibitors; AID 504332; G9a H3K9 monomethylation, AlphaScreen, 2 h; Q96KQ7; 8.8% of 350,000 active; further: potency means the concentration at half of the fitted maximal effect; on the % scale 0 is the no-effect control and ±100 the full control effect; nearly all actives have a fitted effect of over 75% in size
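G9a (20 nM) was preincubated 15 min with compound, then reacted 2 h at room temperature with 500 nM biotin-H3K9 peptide and 20 µM SAM. Monomethyl-H3K9 detected by AlphaScreen using anti-H3K9me1 antibody.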
PI4K2A inh: blocks human PI4K2A kinase activity. Q9BTU6. purified PI4K2A, ADP-Glo luminescence, 1 h; stronger effect = lower value. activity change, negative = inhibition, % at 76.9 µM. 0.13% of 420,000 active; in the data active means activity change below about -50%; inconclusive means mostly about -30% to -49%;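 further: -100% = wells without enzyme as full effect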
Target sequence (Q9BTU6 whole entry, looked up): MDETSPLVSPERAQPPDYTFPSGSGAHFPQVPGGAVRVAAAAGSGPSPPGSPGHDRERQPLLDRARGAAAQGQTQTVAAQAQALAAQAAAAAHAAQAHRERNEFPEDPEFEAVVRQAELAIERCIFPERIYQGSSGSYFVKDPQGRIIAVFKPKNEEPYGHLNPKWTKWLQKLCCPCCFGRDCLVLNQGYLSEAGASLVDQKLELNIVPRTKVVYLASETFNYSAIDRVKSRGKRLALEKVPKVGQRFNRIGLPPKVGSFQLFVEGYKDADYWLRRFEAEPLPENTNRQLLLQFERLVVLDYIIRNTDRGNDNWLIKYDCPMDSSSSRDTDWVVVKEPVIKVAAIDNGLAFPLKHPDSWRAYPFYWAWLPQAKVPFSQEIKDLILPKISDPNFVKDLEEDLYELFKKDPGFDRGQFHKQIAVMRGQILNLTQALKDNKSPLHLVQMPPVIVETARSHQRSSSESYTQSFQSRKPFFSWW
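In this quantitative HTS, ADP production by PI4K2A was quantified luminescently after 1 h at ambient temperature; 100 microM adenosine served as plate-quality control.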
Starred values were filed as active, the others as inactive; i = inactive; ? = inconclusive; / = no result given; & = joins results of further samples; ! = not confirmed by another sample; [ ] = remark or other dose. Unless noted, the call rests on the fitted dose curve; in most records, active means well fitted curve in the direction sought with a large enough effect; inconclusive means small, poorly fitted or top-dose-only effect, or another doubt; inactive means no such curve, though single readings can be large; an effect the other way counts as inactive or inconclusive. Only part of the results is shown; rates above refer to the full screens.

SMILES	PGK inhibitor	GLS inh	ERG-DNA inh	Pin1 inh	HP1b chromo inh	JMJD2A Tudor	G9a inh	PI4K2A inh
COc1ccc2ccccc2c1CNCCN1CCOCC1	5%	-3%	-1%	-6%	41%[activator]	-5%	50µM*	-7
Cc1cccc(OCCNC(=O)CSc2ccc(C(F)(F)F)cc2[N+](=O)[O-])c1	i	1%	4%	0%	13%	-12%	6%[59 µM]	5
COc1ccc(-c2cc(C)no2)cc1S(=O)(=O)NCCCN1CCN(c2ccccc2)CC1	-2%	-6%	-1%	-2%	42%[activator]	14%	/	-1
Cc1ccc(-n2c(SCC(=O)NCc3ccco3)nnc2-c2cccnc2)c(C)c1	0%	13%	-1%	0%	21%	-26%	-11%[59 µM]	-10
CCOC(=O)c1ccccc1Nc1cn(C(C)=O)c2ccccc12	-10%	-2%	-10%	2%	56%[activator]	-15%	5%[12.7 µM]	7
COc1ccc(-c2cn(-c3ccc(C)cc3)c(=O)n2CC(=O)Nc2ccc(OC)c(OC)c2)cc1	-10%	-17%	-9%	15%	?	?	-43%[59 µM]	1
Cc1ccc(-c2nn(C(C)(C)C)c3ncnc(NS(=O)(=O)c4ccc([N+](=O)[O-])cc4)c23)cc1	13%	7%	-3%	2%	-15%	?	?	2
CC1CCN(C(=O)c2[nH]cnc2C(=O)N[C@@H](C)C(=O)OC(C)(C)C)CC1	-5%	6%	-3%	3%	8%	?	-2%[59 µM]	-4
O=C(/C=C/c1ccco1)NC(=S)Nc1ccccc1N1CCCC1	-1%	30%	24%	-20%	?	?	16µM*	-11
COc1ccc(-n2c(Cc3cccn3C)nnc2SCC(=O)Nc2ccc3c(c2)OCO3)cc1	10%	4%	5%	?	19%	-34%	50µM*	-5
COc1ccc(-c2cnn(C3CCS(=O)(=O)C3)c2N)cc1 (centres undefined)	15%	3%	-4%	-4%	24%	8%	11%	-3
c1ccc(-n2c(SCC3CCCCO3)nnc2-c2cnccn2)cc1 (centres undefined)	6%	-18%	8%	-9%	52%[activator]	-1%	-48%[59 µM]	20
Cc1ccc(NC(=O)c2sc3ncnc(N4CCN(c5ccccn5)CC4)c3c2C)c(C)c1	0%	6%	-3%	16%	18%	-22%	9%	5
O=C(O)c1ccc2c(=O)n3c(nc2c1)/C(=C/c1ccccc1C(F)(F)F)CCCC3	-9%	12%	-15%	1%	5%	-13%	-27%[59 µM]	-1
Cc1ccc(C(=O)N/C(=C\c2ccccc2)C(=O)NCCCn2ccnc2)cc1	-9%	-8%	-1%	1%	21%	?	-1%	-3
Cc1cc2c(cc3c(SCc4ccc(Cl)cc4)nncn32)o1	8%	-1%	0%	49%[activator]	11%	-25%	-46%[59 µM]	-3
NC(=S)N(c1ccccc1)c1ccccc1	-7%	4%	-5%	-1%	18%	-9%	-18%	0
O=C1N2CCCc3cccc(c32)C12Nc1ccccc1S2 (centres undefined)	3%	8%	-1%	-4%	-13%	?	-9%[12.7 µM]	2
CC#CCN(Cc1ccco1)C(=O)c1ccc(OC2CCN(Cc3ccccn3)CC2)cc1	-10%	0%	-1%	-15%	-4%	-35%	?	1
CCOC(=O)N1CCc2c(sc3c2C(=O)NC(c2cc(OC)c(O)c(OC)c2)N3)C1 (centres undefined)	-8%	2%	16%	?	?	?	18µM*	0

Reprinted at random: 4 records from the list.
SMILES	PGK inhibitor	GLS inh	ERG-DNA inh	Pin1 inh	HP1b chromo inh	JMJD2A Tudor	G9a inh	PI4K2A inh
Cc1ccc(-n2c(SCC(=O)NCc3ccco3)nnc2-c2cccnc2)c(C)c1	0%	13%	-1%	0%	21%	-26%	-11%[59 µM]	-10
Cc1cc2c(cc3c(SCc4ccc(Cl)cc4)nncn32)o1	8%	-1%	0%	49%[activator]	11%	-25%	-46%[59 µM]	-3
COc1ccc(-c2cc(C)no2)cc1S(=O)(=O)NCCCN1CCN(c2ccccc2)CC1	-2%	-6%	-1%	-2%	42%[activator]	14%	/	-1
Cc1ccc(C(=O)N/C(=C\c2ccccc2)C(=O)NCCCn2ccnc2)cc1	-9%	-8%	-1%	1%	21%	?	-1%	-3

Next section:
SMILES	PGK inhibitor	GLS inh	ERG-DNA inh	Pin1 inh	HP1b chromo inh	JMJD2A Tudor	G9a inh	PI4K2A inh
O=C1Nc2c(c(=O)[nH]c(=O)n2-c2ccccc2)C1(NS(=O)(=O)c1ccc(Cl)cc1)C(F)(F)F (centres undefined)	-4%	-8%	1%	?	34%	-3%	2%[59 µM]	2
COc1ccccc1-c1nnc(NC(=O)c2ccccc2F)o1	i	2%	4%	2%	37%	?	-15%	-1
C/C(=N\NC(=S)NCc1ccccc1)c1cccc(Br)c1	0%	-10%	-17%	9%	-14%	-26%	-46%	4
COc1ccc(C2CC2/C(C)=N/OC(=O)c2ccc(F)cc2)cc1 (centres undefined)	i	-1%	7%	-2%	126%[activator]	49%[activator]	116%[activator]	0
O=c1c(N2CCN(c3ccccc3)CC2)csc2ccc(Cl)cc12	i	18%	6%	-13%	9%[57 µM]	?	-51%[59 µM]	0
COc1ccc(C(=O)Nc2nnc(-c3ccccc3)o2)cc1OC	-5%	1%	-8%	-5%	44%[activator]	?	8%	0
O=C(NCC1CCCO1)c1csc(Nc2cccc3ccccc23)n1 (centres undefined)	-3%	8%	-5%	-2%	18%	-18%	/	2
Cc1ccc(CNc2oc(-c3ccc(COc4ccc(Cl)cc4)o3)nc2C#N)cc1	6%	6%	2%	34%[activator]	4%	-29%	?	-1
Cn1c(=O)n(C)c2cc(N3CCOCC3)c(NC(=O)c3c(F)cccc3F)cc21	-9%	14%	-3%	1%	11%	1%	-7%[59 µM]	-7
CCOc1ccc(N/C(SCc2cccc([N+](=O)[O-])c2)=C(/C#N)C(N)=O)cc1	-2%	-20%	?	-3%	-15%	?	?	3
Fc1ccccc1Cn1nnc2c(NCc3ccccn3)ncnc21	-4%	-3%	1%	-13%	28%	-1%	-2%[59 µM]	-3
S=C(NCc1ccccc1)NNc1ccccc1	4%	?	10%	4%	-20%	-30%[57.1 µM]	40µM*	-16
C=CCc1cc(Cl)ccc1OCCCn1ccnc1	-2%	2%	-3%	4%	?	?	10µM*	2
COc1ccc(-c2nc(Cn3c(=O)cc(-c4ccccc4)c4c(C)nn(C)c43)c(C)o2)cc1OC	i	1%	34%[activator]	3%	24%	-26%	-42%[59 µM]	2
Cc1c(C(=O)NCc2ccco2)oc2ccc(S(=O)(=O)N3CCC4(CC3)OCCO4)cc12	4%	11%	-1%	0%	13%	-19%	1%[0.501 µM]	2
COc1ccccc1C1/C(=C(/O)c2ccc(OC(C)C)cc2)C(=O)C(=O)N1c1cc(C)on1 (centres undefined)	1%	11%	-4%	-6%	-3%	-29%	1.3µM*	8
CCOC(=O)C1CCN(c2cc3c(cc2NC(=O)c2ccccc2Cl)n(C)c(=O)n3C)CC1	0%&-3%	-5%&1%	-5%&-5%	?	3%[57 µM]	?	8.9µM*!	-3&-8
COc1cc(/C=C/C(=O)OCC(=O)NC(=O)NC(C)C)ccc1O	0%	19%	-14%	2%	11%	-24%	/	2
COc1cc(/C=N/c2oc(-c3ccccc3)cc2C#N)ccc1O	i	51%[activator]	3%	?	?	?	?	2
N/N=C(/Cc1nc2ccccc2[nH]1)c1ccc([N+](=O)[O-])cc1	-6%	-1%	-7%	-6%	1%	-34%	?	-10
Cc1ccc(OCCn2cnc(Cl)c2Cl)cc1	3%	-6%	1%	14%	-5%	-24%	?	1
COc1ccc(-c2oc3ncnc(NCCCN4CCOCC4)c3c2-c2ccc(OC)cc2)cc1	0%	2%	-6%	5%	-8%	?	?	3
CCn1c(SCC(=O)Nc2ccc(C(=O)OC)cc2)nnc1-c1cccs1	8%	-2%	-14%	-7%	27%	-2%	20%[12.7 µM]	0
Cc1cccc(C(=O)NC(C(=O)Nc2nc(-c3ccccn3)cs2)C(C)C)c1 (centres undefined)	i	-1%	4%	4%	20%	-35%	6%	-5
COc1ccc(NC(=O)c2cc(C)n(Cc3cccs3)c2C)cc1	2%	4%	-3%	-2%	2%	-36%	/	5
Cc1ccc(OCc2nc(C#N)c(NCc3ccc4c(c3)OCO4)o2)cc1	-6%	4%	-4%	-3%	?	-34%	-5%[2.33 µM]	3
COc1cc(CNC2CCCCCC2)cc(OC)c1	-2%	0%	6%	-9%	36%	-7%	?	5
Cc1ccc(NC2CCCN(C(=O)CCC(=O)c3ccccc3)C2)cc1C (centres undefined)	-3%	1%	6%	-11%	-5%	?	/	-2
N#C/C(=C/c1ccc(Cl)cc1)c1nc(-c2ccc(Br)cc2)cs1	-10%	-11%	1%	36%[activator]	74%[activator]	30%	5%[59 µM]	0
CN1CCN(c2nc(-c3ccccn3)nc3ccccc23)CC1	-5%	-1%	-1%	4%	32%	-27%	?	-12
CN1CCN(c2nc(-c3ccc(Cl)cc3)nc3ccccc23)CC1	0%	132%[activator]	-8%	2%	-8%	-5%	26%	-12
N#Cc1nc(-c2cccc(Cl)c2)oc1NCc1cccnc1	-3%	-8%	0%	0%	-29%	?	?	6
COc1cc2c(cc1OC)C1O[C@](c3ccsc3)(C2)OC2=C1C(=O)CC(C)(C)C2	/	/	/	/	/	/	-5%[2.33 µM]	/
CC(C)OC(=O)c1cc2c(ccn2C)n1CC(=O)N1CCC(Cc2ccccc2)CC1	-1%	16%	5%	4%	?	?	45µM*	-9
CSc1ccccc1OCc1cc(C(=O)NCCN2CCCc3ccccc32)no1	-7%	-1%	15%	2%	-17%	?	?	2
Cc1nn(-c2ccccn2)c2c1C(c1ccccc1Cl)C1=C(N2)c2ccccc2C1=O (centres undefined)	-9%	3%	1%	-2%	-18%	?	25µM*	-7
Cc1ccc(C(=O)NC(=S)N2CCN(c3cc(C)ccc3C)CC2)cc1	i	-9%	6%	-1%	19%	-34%	/	2
O=C(CSc1nccn1Cc1ccccc1)Nc1ccc2c(c1)OCO2	13%	-9%	11%	2%	-1%[57 µM]	-33%	-35%[59 µM]	-3
Cc1ccccc1OCc1ccc(-c2nc(C#N)c(NCCCN(C)C)o2)o1	0%	3%	3%	5%	-5%	?	?	-4
